GIV-Gai inh – GIV-Galpha-i interaction inhibition. 210,000 compounds, 0.42% hits. P08753. Galpha-i3/FITC-GIV peptide fluorescence polarization, 90 min; hits give low values; scaled: aluminum fluoride 0%, vehicle 100%. percent of control (FP), % (concentration not given with the values);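 active = replicate mean at 85% of control or lower, very high polarization wells dropped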;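 note: wells of about 15 µL received 100 nL stock; the first replicate is given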
Target sequence (P08753 whole entry, looked up): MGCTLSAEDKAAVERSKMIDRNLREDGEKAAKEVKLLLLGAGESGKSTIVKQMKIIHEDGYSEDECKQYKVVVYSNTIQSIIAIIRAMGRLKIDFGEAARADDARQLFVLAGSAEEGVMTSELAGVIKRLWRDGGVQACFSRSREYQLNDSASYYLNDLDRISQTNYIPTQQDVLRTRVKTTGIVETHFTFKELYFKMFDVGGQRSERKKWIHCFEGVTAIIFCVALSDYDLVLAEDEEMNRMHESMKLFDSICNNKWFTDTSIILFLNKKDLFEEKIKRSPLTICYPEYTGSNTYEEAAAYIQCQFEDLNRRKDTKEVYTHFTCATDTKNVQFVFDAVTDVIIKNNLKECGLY
* hit, by the source's call. An excerpt; the hit share may differ from the screen's.

SMILES,GIV-Gai inh
COC(=O)c1c(C(C)(C)C)oc2c1cc(NS(=O)(=O)c1ccc(C)cc1C)c1ccccc12,111
Cc1nn(-c2nc3ccc(Br)cc3s2)c2c1C(c1ccccc1Cl)CC(=O)N2 (centres undefined),103
CCOC(=O)C1C(c2ccccc2)NC(=S)NC1(O)c1ccccc1 (centres undefined),108
C=CCNC(=O)c1cccn2c(-c3ccc(F)cc3)nnc12,104
O=C(Nc1nc(-c2cc3ccccc3oc2=O)cs1)c1cnn2c(C(F)(F)F)cc(-c3ccccc3)nc12,107
CCNC(=O)NC1CCN(C(=O)C2CCCC2)C1 (centres undefined),99
Fc1ccc(-c2nc3cc(C(F)(F)F)cc(Br)c3nc2-c2ccc(F)cc2)cc1,109
CCOC(=O)c1[nH]c(C)c(CN(C(=O)c2cccnc2)C2CCCCC2)c1C,101
CC1(C)CC(NCCC(=O)NC2CC(C)(C)NC(C)(C)C2)CC(C)(C)N1,100
Cc1cc(C)c2c(=O)n(Cc3cn4ccccc4n3)c(=O)n(-c3ccccc3)c2n1,101

Ordered by the number under GIV-Gai inh (rising): three of the compounds above.
SMILES,GIV-Gai inh
CC1(C)CC(NCCC(=O)NC2CC(C)(C)NC(C)(C)C2)CC(C)(C)N1,100
CCOC(=O)c1[nH]c(C)c(CN(C(=O)c2cccnc2)C2CCCCC2)c1C,101
C=CCNC(=O)c1cccn2c(-c3ccc(F)cc3)nnc12,104

Continued.
SMILES,GIV-Gai inh
Cc1cc(C)c(S(=O)(=O)N2CCCC2c2nc(-c3ccc(F)cc3)no2)cc1C (centres undefined),94
COc1ccc(Cl)cc1NC(=O)N1CCc2nc[nH]c2C1,104
O=C1CCCC2=C1C(c1ccc(Cl)cc1)C1C(=O)c3ccccc3C1=N2 (centres undefined),111
COc1cc(-c2nc(C=Nc3cc(Cl)ccc3Cl)c(O)o2)cc(OC)c1OC,113
CC(C)c1ccc(-c2nn3c(=O)c(NC(=O)c4ccc(Cl)cc4)cnc3o2)cc1,108
O=C(NCc1cccc(Cl)c1)c1ccc(SCCN2CCCCC2)nc1,101
Cc1cc(-c2c(C)sc(C)c2S(=O)(=O)NCc2ccccc2Cl)n[nH]1,96
CCOC(=O)C1=C(C)N=c2s/c(=C/c3cn(C)c4ccccc34)c(=O)n2C1c1ccc(OC)c(OC)c1 (centres undefined),119
Cc1c(S(=O)(=O)N2CCN(C3CCCCC3)CC2)cc(-c2nc(-c3ccccc3)cs2)n1C,107
O=C(Nc1ccc(Br)cc1)c1cccc(-c2cc(N3CCCC3)ncn2)c1,118

A run of entries from the list above, as a working copy:
SMILES,GIV-Gai inh
O=C(NCc1cccc(Cl)c1)c1ccc(SCCN2CCCCC2)nc1,101
Cc1cc(-c2c(C)sc(C)c2S(=O)(=O)NCc2ccccc2Cl)n[nH]1,96
CCOC(=O)C1=C(C)N=c2s/c(=C/c3cn(C)c4ccccc34)c(=O)n2C1c1ccc(OC)c(OC)c1 (centres undefined),119
Cc1c(S(=O)(=O)N2CCN(C3CCCCC3)CC2)cc(-c2nc(-c3ccccc3)cs2)n1C,107
O=C(Nc1ccc(Br)cc1)c1cccc(-c2cc(N3CCCC3)ncn2)c1,118

Further entries follow.
SMILES,GIV-Gai inh
Cc1ccc(S(=O)(=O)Oc2ccc3ccccc3c2/C=N/NC(=O)C(=O)N/N=C/c2c(OS(=O)(=O)c3ccc(C)cc3)ccc3ccccc23)cc1,119
O=C(Nc1ccccc1)N1CCC2(CC1)Nc1cc(F)ccc1-n1cccc12,108
COC(=O)c1sccc1NC(=O)CN1CCCN(Cc2ccccc2C)S1(=O)=O,106
Cc1ccccc1C1CC(=O)Nc2c1cnn2-c1nc2ccccc2s1 (centres undefined),98
CCC(=O)N1c2ccccc2N2C(c3c(C)c(C)cc(C)c3C)=NON12,106
O=S(=O)(c1cc(-c2nnc(C3CC3)o2)cs1)N1CCCCC1,109
Cc1ccc(C)c(N2CCN(S(=O)(=O)c3c(C)sc(C)c3-c3cc(C)[nH]n3)CC2)c1,98
COc1ccc(C(=O)Cn2c3ccccc3n3nc(C)c(=O)nc23)cc1,105
CCOC(=O)C1=C(O)/C(=C/c2ccc(O)cc2)SC1=Nc1ccc(Cl)cc1,107
N=C1/C(=C(/O)c2ccccc2)C(c2ccccc2)C2=C(CCCC2=O)N1c1ccc([N+](=O)[O-])cc1 (centres undefined),108

Continued:
SMILES,GIV-Gai inh
CCOC(=O)c1cnc2c(ccc3ccccc32)c1Nc1cccc(C(C)=O)c1,103
Cc1ccc2c(=O)c(-c3nc(-c4cccc(F)c4)no3)cn(CC(=O)Nc3c(F)cccc3F)c2n1,115
COc1cccc(-c2cc3n(C)c(C)c(CCC(=O)NCC4CCCO4)c(=O)n3n2)c1 (centres undefined),107
COC(=O)CN1C(=O)c2ccccc2S1(=O)=O,111
O=C(Cc1ccccc1)NCc1nc(-c2ccc3c(c2)Sc2ccccc2C(=O)N3C2CC2)no1,100
CCOC(=O)c1c(C)[nH]c(C)c1S(=O)(=O)N1CCC(C(=O)N2CCN(c3ccccn3)CC2)CC1,109
O=CN1CCN(S(=O)(=O)c2ccc3c(c2)C(=O)c2cc(S(=O)(=O)N4CCN(C=O)CC4)ccc2-3)CC1,107
CCOc1ccc(-n2cc(-c3ccccc3)c3c(NCCCN4CCCC4=O)ncnc32)cc1,108
C=Cc1ccc(Cn2c(=O)c3cnc(-c4ccc(C)cc4)nc3n(C)c2=O)cc1,98
CCc1cc(-c2csc(S(=O)(=O)NCc3ccc(Br)cc3)c2)on1,104

Other results:
SMILES,GIV-Gai inh
N#Cc1c2c(c(N3CCCCCC3)n3c1nc1ccccc13)CCC2,107
CC1(C)CN(CC(=O)N2CCCC2)c2ccc(S(=O)(=O)N3CCCCCC3)cc21,114
CCOC(=O)c1[nH]c(C)c(CN(Cc2ccc(C)cc2)C(=O)Nc2cc(C)ccc2OC)c1C,99
CCOC(=O)C1=C(N)Oc2ccc3ccccc3c2C1c1cccc(Cl)c1 (centres undefined),108
Cc1ccnc(Nc2nc(-c3ccccc3Cl)cs2)c1,113
CCCc1cc(C2CCCN2C(=O)Nc2ccc3c(c2)OCCO3)no1 (centres undefined),108
COC(=O)C1=CN(C2CC2)c2cc(N3CCCC(C)C3)c(F)cc2S1(=O)=O (centres undefined),102
CCSc1nccc2c1ccn2CC(=O)NCc1cccc(Br)c1,101
Cc1ccc2c(c1)Oc1cc(Cl)c(S(=O)(=O)N3CCCCC3)cc1C(=O)N2,120
Cc1ccc(-c2nccc(Oc3ccc(C(=O)NCCC4=CCCCC4)cc3)n2)cc1,98

Continuation:
SMILES,GIV-Gai inh
CCCn1nnc2cc(-c3noc(-c4cnccn4)n3)ccc21,102
Cc1[nH]c(C)c(S(=O)(=O)NC2CCCC2)c1-c1nnc(C2CCC2)o1,106
CCN1CCN(CCNC(=O)c2ccc3c(=O)n(Cc4ccc(Cl)cc4)c(=S)[nH]c3c2)CC1,113
COc1ccc(-c2cs/c(=N\c3ccccn3)n2-c2ccccc2)cc1,103
CCOc1ccc2c(c1)-c1c(ssc1=S)C(C)(C)N2C(=O)c1ccccc1Cl,107
CCOC(=O)CNC(=O)N1CCC2(CC1)Nc1cc(OC)ccc1-n1cccc12,108
NS(=O)(=O)c1ccc(N2N=C(C(F)(F)F)/C(=C/c3ccc(-c4ccc5c(c4)C(=O)NC5=O)o3)C2=O)cc1,107
COC(=O)c1ccccc1N1C(=O)C2C3C=CC(C(OC(C)=O)OC(C)=O)(O3)C2C1=O (centres undefined),99
CCS(=O)(=O)N1CCc2nc[nH]c2C1,103
CCCN1CCN(CCCNC(=O)c2ccc3nc(CC)c(CC)nc3c2)CC1,108

Next part.
SMILES,GIV-Gai inh
Cc1ccc(N2C(=O)C(N3C(=O)c4ccccc4C3=O)C2c2ccc(OC(F)F)cc2)cc1 (centres undefined),122
COc1ccc(-c2noc(N3CCC(C(=O)NCc4ccc5c(c4)OCO5)CC3)n2)cc1OC,103
COCC(=O)N1CCCC(c2nc(C)cs2)C1 (centres undefined),103
C=CCOC(=O)C1=C(C)NC(=O)NC1c1cn(-c2ccccc2)nc1-c1ccc(F)cc1 (centres undefined),104
CCNC(=O)N1CCCC(c2nc(C(C)C)cs2)C1 (centres undefined),105
CC(C)(C)c1csc(-c2csc(S(=O)(=O)NCc3ccccc3)c2)n1,109
O=c1c2sc(=S)n(Cc3ccco3)c2nc(SCc2cc(=O)n3ccccc3n2)n1-c1ccc(F)cc1,107
CCc1ccc(C2CC(=O)Nc3c2cc(Br)c2ccccc32)cc1 (centres undefined),108
Cc1nnc2ccc(-n3ncc4c3NC(=O)CC4c3ccc(OC(C)C)cc3)nn12 (centres undefined),101
Cc1ccc(NC(=O)CSc2nc3ccccc3[nH]2)cc1NC(=O)CSc1nc2ccccc2[nH]1,104

Next part
SMILES,GIV-Gai inh
CCN(CC)c1ccc2cc(-c3nnc(Nc4cc(F)ccc4C)s3)c(=O)oc2c1,267
Cc1ccc([N+](=O)[O-])cc1S(=O)(=O)n1c(SCC(=O)c2ccc(Cl)cc2)nc2ccccc21,108
CCCOc1ccc(CN2CCCC2c2cc(C)on2)cc1OC (centres undefined),133
O=C1Nc2ccccc2Oc2cc(Oc3ccccc3Br)c(S(=O)(=O)N3CCOCC3)cc21,102
CCn1cnnc1C1CCCN(C(=O)c2ccsc2)C1 (centres undefined),108
CCCCCOC1OC(COC(C)=O)C(OC(C)=O)C(OC(C)=O)C1NC(C)=O (centres undefined),104
CCc1ccccc1NC(=O)CSC1=C(C#N)C(c2ccccc2Cl)C(C(=O)OC)=C(C)N1 (centres undefined),98
O=C(NC1CCN(c2ncnc3c2CCC3)C1)c1cnccn1 (centres undefined),101
Oc1c(I)cc2oc3c(c2c1CNc1ccc(Br)cc1)CCCC3,108
Cc1noc(C2CCCCN2Cc2cc(F)ccc2F)n1 (centres undefined),106

Filtered by structure: those above containing a CF3 group
SMILES,GIV-Gai inh
O=C(Nc1nc(-c2cc3ccccc3oc2=O)cs1)c1cnn2c(C(F)(F)F)cc(-c3ccccc3)nc12,107
Fc1ccc(-c2nc3cc(C(F)(F)F)cc(Br)c3nc2-c2ccc(F)cc2)cc1,109
NS(=O)(=O)c1ccc(N2N=C(C(F)(F)F)/C(=C/c3ccc(-c4ccc5c(c4)C(=O)NC5=O)o3)C2=O)cc1,107

The listing continues.
SMILES,GIV-Gai inh
CCOC(=O)C1=C(C)NC(C)=C(C(=O)OCC)C1c1cn(-c2ccccc2)nc1-c1ccc(OC)cc1,104
COc1ccc(Cn2nc3c(S(=O)(=O)N4CCCC4)cccn3c2=O)cc1,105
Cc1c(Cl)c(C)c(C2=NON3N(C(=O)c4ccccc4)c4ccccc4N23)c(C)c1Cl,106
CCCCOc1ccc(-c2nc(C=Nc3ccc(OC)c(Cl)c3)c(O)o2)cc1,100
Clc1ccc(CN2CCN(Cc3ccc(Cl)cc3)C2c2c(Cl)cccc2Cl)cc1,112
CCCCOc1ccc(NC(=O)CSC2=C(C#N)C(c3ccccc3)C(C(=O)Nc3ccccc3)=C(C)N2)cc1 (centres undefined),112
CC(C)NC(=O)c1nsc(C(=O)N2CCSCC2)c1N,99
COc1cc2c(c([N+](=O)[O-])c1)OC1(C=C2)N(c2ccccc2)c2ccccc2C1(C)C (centres undefined),110
CCC1C/C(=C\c2ccc(OC)cc2)C(=O)/C(=C/c2ccc(OC)cc2)C1 (centres undefined),102
COc1ccc(N2CC(C(=O)Nc3nnc4n3CCS4)CC2=O)cc1 (centres undefined),100

(more compounds)
SMILES,GIV-Gai inh
COc1ccc(C2C(C#N)=C(N)N(c3cccc([N+](=O)[O-])c3)C3=C2C(=O)CC(C)(C)C3)cc1 (centres undefined),106
COc1ccc(N2CCN(C(=O)CSc3nc4[nH]ncc4c(=O)n3-c3ccc(Cl)cc3Cl)CC2)cc1,110
CCCCCCCCNC(=O)C1OC2OC(C)(C)OC2C2OC(C)(C)OC12 (centres undefined),98
COc1ccccc1N=C(NOCc1ccc(Cl)cc1Cl)c1nonc1N,105
O=C(NCc1ccc(Br)cc1)c1cccc(-c2cc(N3CCCC3)ncn2)c1,105
Cc1cccc(CSc2nc3c(=O)n(C)c(=O)n(C)c3n2C)c1,96
COc1ccc2c(c1)N(C(=O)CN1C(=O)CCC1=O)C(C)(C)c1ssc(=S)c1-2,111
CC(C)CNC(=O)c1ccc(-c2cc(N3CCCC3)ncn2)cc1,115
O=C(NC1CCCc2ccccc21)c1ccc(-c2cc(N3CCOCC3)ncn2)cc1 (centres undefined),104
O=C(NCCCN1CCCC1)C1CCN(c2cnc(N3CCCC3)nc2)CC1,98

The listing continues.
SMILES,GIV-Gai inh
CC(C)NC(=O)CCn1c(=O)c2ccccc2n2c(=O)n(Cc3cccc(F)c3)nc12,97
COc1ccc(-n2nc3c(c2NC(=O)c2c(-c4ccccc4Cl)noc2C)CS(=O)(=O)C3)cc1,115
CC(=O)C1=C(C)OC(N)=C(C#N)C1c1ccc(Cl)cc1 (centres undefined),108
O=C(Cn1nc(C(=O)Nc2ccccc2)ccc1=O)Nc1ccc(F)c(F)c1,103
Cc1ccccc1-c1ncccc1C(=O)N1CCC(C(=O)NC(C)CCc2ccccc2)CC1 (centres undefined),102
CCOc1c(C(=O)OC)sc2ccc(NC(=O)c3[nH]nc4c3CCc3ccccc3-4)cc12,102
CCCN(CCC)CC(O)Cn1c2ccccc2c2ccccc21 (centres undefined),104
Cc1cc(Br)ccc1N1C(=O)/C(=C/c2ccc(Cl)cc2)C=C1c1ccccc1,107
Cc1ccc(S(=O)(=O)Nc2ccc(Sc3c(C)c(C)nc4ncnn34)cc2)cc1C,101
CCOc1ccc(N2CC(O)(c3ccc(OC)cc3F)[N+]3=C2SCCC3)cc1 (centres undefined),108

(cont.)
SMILES,GIV-Gai inh
COc1cccc(N/C(SC)=C(/C#N)C(=O)NCc2cccs2)c1,101
Cc1ccc(Cc2nc(CCNS(=O)(=O)c3cc(C)ccc3C)n[nH]2)cc1,107
CNC(=O)c1ccc2c(c1)nc1n2CCCCC1,102
COc1ccc(C2NC(=O)c3c(sc4c3CCCC4)N2)cc1 (centres undefined),112
CCC(C)n1c(SCC(=O)Nc2nccs2)nc2ccsc2c1=O (centres undefined),107
